Bioassay records as filed in PubChem BioAssay.
2A firefly = Primary qHTS Assay for Foot and Mouth Disease Virus Antivirals against NCGC Sytravon and CBC Compound Libraries: Firefly Luciferase Signal | HEK cells with a luciferase reporter of 2A StopGo recoding | Potency, µM (doses to about 57.5 µM), inactives show top-dose signal change, negative = less light | actives 0.23% (n = 120,000) | AID 1745856, 2022; active = well fitted falling curve with a large enough effect; inconclusive = small, poorly fitted or top-dose-only effect; inactive = no such curve, though single readings can be large or run the other way; also: nearly all actives have a fitted effect of over 60% in size; overnight with compound
StopGo RLuc = Primary qHTS Assay for Foot and Mouth Disease Virus Antivirals against NCGC Sytravon and CBC Compound Libraries: Renilla Luciferase Signal. HEK cells with a luciferase reporter of 2A StopGo recoding. Potency, µM (titrated, usually from 57.5 µM), for the others: top-dose signal change, negative = less light. actives 0.32% (n = 120,000); active means well fitted falling curve with a large enough effect; inconclusive means small, poorly fitted or top-dose-only effect; inactive means no such curve, though single readings can be large or run the other way; also: nearly all actives have a fitted effect of over 55% in size; overnight with compound
The depositor's hits bear a star; ? = inconclusive; & = joins results of further samples; [ ] = remark or other dose. % is scaled to controls: 0 for no effect and ±100 for the full control effect; potency is read from the fitted curve at half-maximal effect. Only part of the results is shown (hit frequency here may not be typical).

no.	structure	2A firefly	StopGo RLuc
1	CCc1cccc(C)c1NC(=O)CN1C(=O)c2cccc3cccc1c23	-4%	1%
2	O=C(CCc1ccsc1)NCC1CCCC1	0%	14%
3	Cc1ccc(C(=O)COC(=O)CCCC(=O)Nc2cc(C(F)(F)F)ccc2Cl)cc1[N+](=O)[O-]	-8%	-4%
4	CCOc1ccc(Cc2nccc3cc(OCC)c(OCC)cc23)cc1OCC	-27%	?
5	Cc1cccc(-c2c(C(N)=O)c(C)nc3sc4c(c23)CCCC4)c1	-22%	-10%
6	CCOc1ccc(CN=C2NS(=O)(=O)C(c3ccc(C)c(C)c3)=C2C)cc1	-19%	86%[activator]
7	Cc1cccc(C(=O)Nc2c(C(=O)N3CCN(c4ccc(F)cc4)CC3)oc3ccccc23)c1	-7%	4%
8	CN(Cc1ccccc1)C1CCN(Cc2ccccc2F)CC1	6%	-6%
9	O=C(c1cc2c(s1)-c1ccccc1OC2)N1CCN(c2ccc(F)cc2)CC1	-8%	-4%
10	CCCn1cc(S(=O)(=O)c2cccc(Cl)c2)c(=O)c2cc(F)c(N3CCOCC3)cc21	0%	169%[activator]
11	COC(=O)C1CN(Cc2ccc(OC)cc2)CCS(=O)(=O)N1Cc1ccc(Cl)cc1 (configuration not stated)	0%	0%
12	CCn1cc(/C=C(\NC(=O)c2ccc(OC)c(OC)c2)C(=O)N2CCOCC2)c2ccccc21	4%	9%
13	COc1nc2ccccc2nc1N1CCC(C(=O)Nc2ccc(I)cc2)CC1	13%	2%
14	CCCC(NC(C)C(=O)O)C(=O)OCC (configuration not stated)	4%	-9%
15	O=C(O)c1ccc(Nc2nc(-c3ccccc3)c3cc(Br)ccc3n2)cc1	15%	6%
16	Cc1ccc(NC(=O)C2CCCN(S(=O)(=O)c3c(C)n[nH]c3C)C2)cc1C (configuration not stated)	10%	17%
17	O=C(NCc1ccc2c(c1)OCO2)c1ccc(CN2CCc3ccccc3C2)cc1	-22%	-19%
18	COc1cc(NC(=O)c2cc(-c3ccc(Cl)c(Cl)c3)on2)cc(OC)c1OC	1%	8%
19	Cc1ccc(C(=O)Nc2cccc(C(=O)N(C)C)c2)cc1	219%[activator]	49%[activator]
20	Cc1ccc(C(=O)NCCn2c(C)cc3ccccc32)cc1C	?	?
21	Cc1nnc2c3ccccc3nc(Nc3ccccc3C(=O)O)n12	-9%	-3%
22	CC(=O)c1c(C)oc2ccc(N(C(=O)Oc3ccccc3)S(=O)(=O)c3ccc(Br)cc3)cc12	-1%	-10%
23	COc1ccc(Cl)cc1CNCCSc1nnnn1-c1ccccc1	1%	-1%
24	CCCc1cc(=O)[nH]c(SC(C)C(=O)NC2CCCCCC2)n1 (configuration not stated)	8%	5%
25	CONC(=O)C(CC(C)C)NC(=O)c1ccc(Cl)cc1 (configuration not stated)	7%	0%
26	CCCc1c(C)nc2ncnn2c1Nc1cccc(C)c1	8%	16%
27	CCCc1nnc(NC(=O)C2CCN(C(=O)c3ccccc3F)CC2)s1	5%	3%
28	COCCn1c(-n2nc(C)c(C)c2C)nc2c1c(=O)[nH]c(=O)n2C	-4%	-10%
29	CCC(=O)Nc1c(-c2cc(=O)oc3cc(C)c(Cl)cc23)oc2ccccc12	7%	-1%
30	C=CCNC(=O)NC(=O)CN(C)CCCOc1ccccc1	-6%	-5%
31	CC(C)n1c(/C=C/[C@@H](O)C[C@@H](O)CC(=O)O)c(-c2ccc(F)cc2)c2ccccc21	-9%[11.5 µM]	-30%
32	Cc1ccsc1CCN1C(=O)N(c2ccc(F)cc2)C(=O)C1CC(=O)Nc1ccccc1 (configuration not stated)	4%	135%[activator]
33	O=C(Cn1cnc2sc3c(c2c1=O)CCC3)NC1CCS(=O)(=O)C1 (configuration not stated)	5%	-7%
34	Cc1ccc2[nH]cc(CCNC(=O)/C=C/c3ccccc3F)c2c1	18%	23%
35	CCc1nn2c(=O)cc(CSc3n[nH]c(-c4cccc(C)c4)n3)nc2s1	17%	9%
36	COc1ccc(-c2ccc(CCC(=O)Nc3ccccc3OC)o2)cc1	0%	29%
37	CCn1cnc2c1c(=O)[nH]c(=O)n2Cc1ccccc1	27%	30%
38	CCCCN(C)CCNC(=O)c1nn(-c2ccc(OC)cc2)c(=O)c2c1c1ccccc1n2C	-18%	-5%
39	COc1cccc(/C=C/c2ccc3cccc([N+](=O)[O-])c3n2)c1	16%	-25%
40	Cc1cc(C)n(C(C)CC(=O)NCc2ccc(N(C)C)cc2)n1 (configuration not stated)	-9%	-5%
41	O=C(CCC1CCCCC1)Nc1ccc(Nc2ccccc2)cc1	57%[activator]	11%
42	CCCCNC(=O)c1cc2cc(Cl)ccc2[nH]1	87%[activator]	14%
43	Cc1ccc(Sc2c(C(=O)NCc3ccccc3C)[nH]c3ccccc23)cc1	-11%	5%
44	COc1cc(/C=C(/C#N)C(=O)c2ccccc2)cc(Cl)c1OC	1%	5%
45	Cc1cc(C(=O)Cn2c(Cl)nc3c2c(=O)n(C)c(=O)n3C)c(C)n1CC(F)(F)F	22µM*	16µM*
46	O=C1N(Cc2cccc(F)c2)CCCN1c1ccc(C(=O)N2CCc3ccccc32)cc1	?	-74%
47	Cc1nc(N)nc(N)c1-c1ccc(Cl)c(Cl)c1	?	?
48	C1N2CN3CN1CN(C2)C3	-2%[11.5 µM]	-12%
49	Cc1cc(C)c(S(=O)(=O)Nc2cccc(S(=O)(=O)C3CCCC3)c2)c(C)c1	-10%	185%[activator]
50	Cc1ccn2c(Nc3ccc4c(c3)OCCO4)c(-c3ccsc3)nc2c1	59%[activator]	-3%
51	COc1ccc(NC(=O)CSc2nc3ccccc3[nH]2)cc1	62%[activator]	52%[activator]
52	CCc1ccc(C2C(C(=O)Nc3ccccc3C)=C(C)Nc3nc(SCc4cccc(OC)c4)nn32)cc1 (configuration not stated)	-13%	-10%
53	COc1cccc(C2C(C#N)=C(N)OC3=C2C(=O)CC(C)(C)C3)c1 (configuration not stated)	-7%	-10%[1.06 µM]
54	O=C1CS(=O)(=O)C2(C(=O)N(Cc3ccccc3F)c3ccccc32)N1c1ccc(F)c(Cl)c1 (configuration not stated)	-18%	6%
55	CCCN(CCC)S(=O)(=O)N1CCCC(c2nncn2C)C1 (configuration not stated)	-12%	-1%
56	CCOCCCNCc1ccc(-c2ccccc2)o1	1%	-10%
57	CC(C)c1cnc2c(c1SCC(=O)O)c(=O)n(C)c(=O)n2C	-14%	-4%
58	CCOc1ccc(C(=O)NCc2ccc3c(c2)CCN3C(=O)c2ccccc2)cc1	-19%	-10%
59	Cc1ccc(-c2nnn(CCC(=O)Nc3sc4c(c3C#N)CCCCC4)n2)cc1	7%	-4%
60	CC(C)c1ccc(OCc2nnc(SCc3csc(-c4ccccc4Cl)n3)n2C)cc1	?	?

(list continues)
no.	structure	2A firefly	StopGo RLuc
61	Cn1c(-c2ccccc2)c(/C=N/Nc2ccc(S(=O)(=O)Nc3ccccc3)cc2[N+](=O)[O-])c2ccccc21	14%	65%[activator]
62	CCN(CC)CCn1c(C)c(C)c2c1ncn1nc(-c3cccs3)nc21	20%	-10%
63	COC(=O)c1ccc(COc2ccc(/C=C/c3nc4c(ccc5ccccc54)s3)cc2)cc1	72%[activator]	?
64	CCCn1nc(C(=O)OCC(=O)N2CC(=O)Nc3ccccc32)c2ccccc2c1=O	0%	20%
65	CC(OC(=O)c1ccc(C#N)cc1)C(=O)NC(C)C1CC2CCC1C2 (configuration not stated)	3%	8%
66	CCN(C(=O)Cn1c(C(=O)OC)cc2oc3ccccc3c21)c1cccc(C)c1	-21%	0%
67	COc1cccc2cc(-c3csc(-c4ccc(F)cc4)n3)c(=O)oc12	-3%	-4%
68	CCc1ccc(-n2c(C)nnc2SCc2nc(-c3ccccc3OC)no2)cc1	?	?
69	CCOC(=O)c1ccc(NC(=O)c2c(NCc3cc(OC)c(OC)cc3OC)sc3c2CCCC3)cc1	-6%	-5%
70	Cc1ccnc(SCc2nc3cc(NS(=O)(=O)c4ccc(Cl)cc4)ccc3n2C)n1	-2%	31%[activator]
71	CCCCc1ccc(NC(=O)CSc2nnc3[nH]c(=O)cc(C)n23)cc1	11%	18%
72	COc1cc(C)c(NC(=O)c2ccc3c(c2)NC(=O)CCS3)cc1OC	8%	48%[activator]
73	O=C(Nc1cccc(Cl)c1)c1nn(Cc2ccccc2)c(=O)c2ccccc12	2%	-5%
74	COC(=O)c1[nH]c2ccc(F)cc2c1NC(=O)CCN1CCC(C)CC1	-4%	-10%
75	Cc1ccc(CNC(=O)c2cnc(N3CCCCC3)c3ccccc23)cc1	-14%	27%
76	NC(=O)C1CCN(Cc2ccc(C(F)(F)F)cc2)CC1	19%	17%
77	CCOC(=O)COc1ccc(C)cc1C(=O)c1ccn2nc(-c3ccc(F)cc3)cc2n1	-2%&-6%	-2%&0%
78	COc1ccc(C(C#N)C(C)=O)cc1 (configuration not stated)	3%	19%
79	COc1ccc(OCCOC(=O)Cc2coc3cc(C)c(C)cc23)cc1	-1%	-3%
80	Cc1ccc(NC(=O)CC2Oc3ccccc3NC2=O)cc1C (configuration not stated)	33%[activator]	-5%
81	CCc1ccccc1NC(=O)CC1CC2CCC1C2 (configuration not stated)	0%	18%
82	Cc1nc2nc(CC(=O)Nc3ccccc3F)nn2c(C)c1Cc1ccccc1Cl	33%	7%
83	Cc1ccccc1OCc1nc(-c2ccccc2OCC(=O)N2CCC(C)CC2)no1	74%[activator]	2%
84	Cc1cccc(OCc2cc(=O)n3c(-c4ccccc4)csc3n2)c1C	54%[activator]	7%
85	O=S(=O)(Nc1nc2ccccc2nc1Nc1cccc(Cl)c1)c1ccc(F)cc1	?	?
86	Cc1ccc2oc(C(=O)N(C)CC(=O)Nc3ccc(Br)cc3C)cc(=O)c2c1	7%	11%
87	N#Cc1c(NC(=O)CNc2ccccc2C(=O)NCC(F)(F)F)sc2c1CCCCC2	17%	-1%
88	Cc1nn(C)c(C)c1CC(=O)Nc1nc(-c2ccc(F)c(F)c2)cs1	?	?
89	Cc1c(Br)c(C(F)(F)F)nn1C(C)C(=O)N1CCN2CCCC2C1 (configuration not stated)	1%	-14%
90	O=C(c1cccc(S(=O)(=O)NC2CC2)c1)N1CCN(c2ccccc2O)CC1	1%	17%

The results go on.
Screens in order – 2A firefly	StopGo RLuc
(91) Cc1ccc(NC(=O)Cn2c(=O)n(Cc3nc(-c4ccccc4)no3)c(=O)c3cc4c(cc32)OCO4)c(C)c1
  0%	24%
(92) Cc1cccc(OCC(O)Cn2c(N)nc3c2c(=O)n(C)c(=O)n3C)c1 (configuration not stated)
  1%	0%
(93) CCc1ccc(NC(=O)CN(c2ccc(Cl)cc2)S(=O)(=O)c2ccsc2C(=O)OC)cc1
  ?	50%&48%[activator]
(94) CC1=CC(=C(C#N)C#N)CC(C)(C)C1
  17%	2%
(95) N#Cc1ccc(NCc2c(F)cccc2Cl)cc1
  7%	-21%
(96) COc1cc(NC(=O)Cn2cc(C(=O)c3ccc(F)cc3)c(=O)c3ccc(C)nc32)cc(OC)c1
  3%	-8%
(97) Cc1nnc(N2CCC(C(=O)NCc3cccc(Cl)c3)CC2)c2nn(-c3ccccc3)c(C)c12
  -22%	14%
(98) CCOC(=O)c1cc(-c2ccc(C)cc2)n(CC(=O)Nc2ccccc2F)c1C
  0%	10%
(99) Cc1cnc2c(c1SCC(=O)Nc1ccc(F)cc1F)c(=O)n(C)c(=O)n2C
  1%	-5%
(100) CC1=C(C(=O)Nc2ccccc2C(=O)NC(C)Cc2ccco2)SCCO1 (configuration not stated)
  7%	-3%
(101) CC(=O)c1c(C)[nH]c(C(=O)c2oc3ccc(Cl)cc3c2C)c1C
  0%	225%[activator]
(102) Cn1nc(C(=O)N(Cc2ccccc2)C2CCS(=O)(=O)C2)c2ccccc2c1=O (configuration not stated)
  9%	8%
(103) O=C(Nc1oc2ccccc2c(=O)c1-c1ccc(F)cc1)c1ccc([N+](=O)[O-])cc1
  -14%	-21%
(104) COc1ccc(CNc2nc(C(=O)NCc3ccccc3OC)cs2)cc1
  -3%	19%
(105) CCCOc1c(Cl)cc(C(=O)NCC2CCCO2)cc1OCC (configuration not stated)
  3%	47%[activator]

A different layout for part of the listing above:
[1] CCc1cccc(C)c1NC(=O)CN1C(=O)c2cccc3cccc1c23
[85] O=S(=O)(Nc1nc2ccccc2nc1Nc1cccc(Cl)c1)c1ccc(F)cc1
[81] CCc1ccccc1NC(=O)CC1CC2CCC1C2 (configuration not stated)
[31] CC(C)n1c(/C=C/[C@@H](O)C[C@@H](O)CC(=O)O)c(-c2ccc(F)cc2)c2ccccc21
[36] COc1ccc(-c2ccc(CCC(=O)Nc3ccccc3OC)o2)cc1
[9] O=C(c1cc2c(s1)-c1ccccc1OC2)N1CCN(c2ccc(F)cc2)CC1
Compound	1	85	81	31	36	9
2A firefly	-4%	?	0%	-9%[11.5 µM]	0%	-8%
StopGo RLuc	1%	?	18%	-30%	29%	-4%

Following part.
Screens in order – 2A firefly	StopGo RLuc
(106) CCCCCCCCCCCCCCCCOP(=O)([O-])OCC[N+](C)(C)C
  6%[11.5 µM]	23%
(107) Cn1c(CN2CCOCC2)nnc1SCc1ccc(Cl)c(Cl)c1
  -5%	-3%
(108) CCS(=O)(=O)c1cccc(C(=O)Nc2ccc(-c3nc4ccccc4s3)c(O)c2)c1
  -9%	0%
(109) NC(N)=NC(N)=Nc1cccc(Cl)c1
  1%	1%[1.06 µM]
